Bioassay records: PubChem BioAssay, National Center for Advancing Translational Sciences (NCATS)
EPAC1 agonist: validation of human EPAC1 agonists. O95398. 16,000 tested, 1% active. Potency, µM, for inactives: max response, positive = active, actives largely listed as activators. EPAC1 Rap1b BODIPY-GDP exchange, fluorescence. AID 1645883; active means well fitted activation curve with a large enough effect; inconclusive means small, poorly fitted or top-dose-only effect; inactive means no such curve, though single readings can be large or run the other way;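 further: nearly all actives have a fitted effect of over 70% in size; series mostly up to about 76 or 150 µM; scaled to a cAMP control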
Target sequence (O95398 whole entry, looked up): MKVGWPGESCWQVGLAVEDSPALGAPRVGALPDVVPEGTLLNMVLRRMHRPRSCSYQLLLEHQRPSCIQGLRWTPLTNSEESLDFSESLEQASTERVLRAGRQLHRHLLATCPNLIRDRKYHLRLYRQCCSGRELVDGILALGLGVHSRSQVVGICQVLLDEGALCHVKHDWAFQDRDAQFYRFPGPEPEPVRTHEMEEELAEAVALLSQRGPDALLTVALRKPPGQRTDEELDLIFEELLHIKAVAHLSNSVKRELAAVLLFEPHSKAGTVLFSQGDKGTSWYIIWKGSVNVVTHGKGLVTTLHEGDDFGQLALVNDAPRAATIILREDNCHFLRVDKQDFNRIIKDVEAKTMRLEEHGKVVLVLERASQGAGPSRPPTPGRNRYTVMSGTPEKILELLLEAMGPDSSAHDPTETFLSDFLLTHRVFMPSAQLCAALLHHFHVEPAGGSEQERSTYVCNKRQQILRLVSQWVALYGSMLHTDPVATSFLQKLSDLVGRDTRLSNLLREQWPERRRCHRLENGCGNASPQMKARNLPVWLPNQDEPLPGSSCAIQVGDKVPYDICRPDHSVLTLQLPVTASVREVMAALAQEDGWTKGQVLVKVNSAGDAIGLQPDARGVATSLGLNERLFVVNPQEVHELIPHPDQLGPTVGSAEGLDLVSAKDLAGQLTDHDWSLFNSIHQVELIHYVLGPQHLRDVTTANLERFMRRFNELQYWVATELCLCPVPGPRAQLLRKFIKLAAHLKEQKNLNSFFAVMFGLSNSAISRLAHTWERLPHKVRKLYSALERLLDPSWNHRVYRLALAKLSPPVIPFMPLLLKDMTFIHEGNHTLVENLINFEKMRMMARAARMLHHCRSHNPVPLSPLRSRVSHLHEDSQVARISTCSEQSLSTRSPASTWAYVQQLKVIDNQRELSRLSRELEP
The depositor's hits bear a star; ? = inconclusive; & = joins results of further samples; ! = repeats disagree; [ ] = remark or other dose. On the % scale 0 is the no-effect control and ±100 the full control effect; potency means the concentration at half of the fitted maximal effect.

No. | mol | EPAC1 agonist
1 | O=c1[nH]c2ccccc2n1CCCN1CCC(n2c(=O)[nH]c3cc(Cl)ccc32)CC1 | -1%&-21%&-10%&11%
2 | C[N+](C)(C)CC(=O)O | 12%
3 | CCCCCCCCCCCCCC(=O)O[C@@H]1[C@@H](C)[C@@]2(O)[C@@H](C=C(CO)C[C@@]3(O)C(=O)C(C)=C[C@@H]23)C2C(C)(C)[C@@]21OC(C)=O (stereo partly specified) | -50%[inhibitor]
4 | CCC(Oc1ccc(Cl)cc1)C(=O)OC1CC2CCC(C1)N2C (stereo unspecified) | -23%
5 | CCN1C[C@]2(COC)CC[C@H](OC)[C@@]34C5C[C@@H]6[C@@H](OC)C[C@@]7(OCO[C@@]7([C@@H](O)C23)[C@@H]14)C5[C@H]6OC (stereo partly specified) | -9%
6 | O=C(NC1CCCCC1)[C@@H]1CC=C[C@@H]2CCN(Cc3ccccc3)C(=O)[C@@H]21 | 10%
7 | ClC1=C(Cl)C2(Cl)C3C(Cl)C=CC3C1(Cl)C2(Cl)Cl (stereo unspecified) | -100%[inhibitor]
8 | CC[C@@]1(O)CC(O)c2c(cc3c(c2O)C(=O)c2c(O)ccc(O)c2C3=O)C1C(=O)OC (stereo partly specified) | 112µM*
9 | c1ccc(C2(N3CCCC3)CCCCC2)cc1 | -3%
10 | c1ccc(N2CC3(CCNCC3)C2)nc1 | ?
11 | CC(C)(C)NCC(O)c1cc(Cl)c(N)c(C(F)(F)F)c1 (stereo unspecified) | -16%
12 | CCCCC/C=C\C=C\[C@H](CCCCCCCC(=O)O)OO | -2%
13 | CNCC/C=C/c1cccnc1 | -7%
14 | COc1cc2c(cc1O)CC1c3c(cc(O)c(OC)c3-2)CCN1C (stereo unspecified) | 4%&-41%
15 | COC1=C[C@]23CCCN2CCc2cc4c(cc2[C@@H]3[C@@H]1O)OCO4 | 2%
16 | C[Se]C[C@H](N)C(=O)O | 3%
17 | CC(=O)OC1(c2ccccc2)CCN(CCc2ccccc2)CC1 | -79%[inhibitor]
18 | CN(C)C1C(=O)C(C(N)=O)=C(O)[C@@]2(O)C(=O)C3=C(O)c4c(O)cccc4[C@@](C)(O)C3C[C@@H]12 (stereo partly specified) | 13%
19 | C#C[C@]1(O)C=C[C@H]2[C@@H]3CCC4=CC(=O)CC[C@@H]4[C@H]3CC[C@@]21CC | -3%
20 | N[C@@]1(C(=O)O)CC[C@@H](C(=O)O)C1 | -9%
21 | COc1ccc2c(c1O)-c1cccc3c1[C@@H](C2)N(C)CC3 | -10%
22 | CC1=C2C3OC(=O)[C@H](C)[C@H]3CC[C@@]2(C)C=CC1=O (stereo partly specified) | -16%
23 | C[C@](N)(CCP(=O)(O)O)C(=O)O | 11%
24 | CCOC(=O)[C@]12Cc3cc(OC)ccc3[C@H]1N(Cc1ccccc1)C(=O)c1cc(F)c(F)cc12 | ?
25 | C[N+](C)(C)CCOC(=O)C(O)(c1ccccc1)c1ccccc1 | -17%
26 | CN(C)CCO | 2%
27 | CC(C)(C)c1cc(C=C(C#N)C#N)cc(C(C)(C)C)c1O | 1%&27%&-4%
28 | CCOC(=O)C1C(C=C(C)C)C1(C)C (stereo unspecified) | ?
29 | CCC(=O)O[C@]1(c2ccccc2)CCN(C)C[C@H]1C | -3%
30 | COP(=S)(OC)SCn1nnc2ccccc2c1=O | -37%

The listing continues.
No. | mol | EPAC1 agonist
31 | O[C@@H]1CCCN2C[C@@H](O)[C@@H](O)C12 (stereo partly specified) | -14%
32 | CCCCCCC(C)(C)c1ccc([C@@H]2C[C@H](O)CC[C@H]2CCCO)c(O)c1 | 2%
33 | c1ccc(N=Nc2ccccc2)cc1 | -2%
34 | CCC1CN2CCC1CC2C(O)c1ccnc2ccc(OC)cc12 (stereo unspecified) | 17%
35 | CCCN1C[C@H](C)N([C@H](c2ccc(C(=O)N(CC)CC)cc2)c2cccc(OC)c2)C[C@H]1C | -9%&-17%
36 | C[C@]12CC[C@H]3[C@@H](CCC4=CC(=O)CC[C@@H]43)[C@@H]1CC[C@@H]2O | 4%&-5%
37 | O[C@@H]1[C@H](O)[C@H]2[C@@H](O)CCN2C[C@@H]1O | 0%
38 | CC1=C[C@@H]2c3cccc4[nH]cc(c34)C[C@H]2N(C)C1 | 2%
39 | CC(C)(C)C(O)C(Oc1ccc(Cl)cc1)n1cncn1 (stereo unspecified) | -85%[inhibitor]
40 | CC(C)NC(C)Cc1ccc(I)cc1 (stereo unspecified) | -6%&-19%
41 | NCCc1c[nH]c2ccc(C(N)=O)cc12 | -2%&-15%&-20%
42 | CC(=O)[C@H]1CC[C@H]2[C@@H]3CC[C@@H]4C[C@H](O)CC[C@]4(C)[C@H]3CC[C@]12C | -17%
43 | CC[C@H](O)C(C[C@H](C)N(C)C)(c1ccccc1)c1ccccc1 | -8%
44 | CC[N+]1(C)CCCC(OC(=O)C(O)(c2ccccc2)c2ccccc2)C1 (stereo unspecified) | -18%
45 | COc1ccc2c(C(=O)c3ccc(Cl)cc3)c(C)n(CC(=O)O)c2c1 | -15%
46 | CCOP(=S)(OCC)Oc1nc(Cl)c(Cl)cc1Cl | 8%
47 | CN1C2CCC1CC(OC(c1ccccc1)c1ccccc1N)C2 (stereo unspecified) | -1%&-11%&-14%
48 | CN1CCCCC1c1ccc(-c2cccnc2)nc1 (stereo unspecified) | -40%&10%[inhibitor]
49 | O=c1ccc2cc(O[C@@H]3O[C@H](CO)[C@@H](O)[C@H](O)[C@H]3O)c(O)cc2o1 | -60%[inhibitor]
50 | C[C@@H]1O[C@@H](O[C@H]2C[C@@H](O)[C@]3(CO)[C@@H]4C(CC[C@]3(O)C2)[C@@]2(O)CC[C@H](C3=CC(=O)OC3)[C@@]2(C)C[C@H]4O)[C@H](O)[C@H](O)[C@H]1O (stereo partly specified) | -2%&0%
51 | CN1C(=S)CN=C(c2ccccc2)c2cc(Cl)ccc21 | -9%
52 | CCCN(CCC)CCc1c[nH]c2ccc(C(N)=O)cc12 | 12%&-8%
53 | C[C@@H]1O[C@H](C[N+](C)(C)C)C[C@@H]1O | -10%
54 | CC(C)CN1CC[C@@]2(CCCN(C(=O)Oc3ccccc3)C2)C1 | -4%
55 | NCCc1ccccc1 | -12%
56 | CN1CCC2(CC1)CCN(C(=O)c1ccco1)CC2 | -47%[inhibitor]
57 | Cc1ncc2n1-c1ccc(Cl)cc1C(c1ccccc1F)=NC2 | -1%
58 | Clc1ccc(CSC(Cn2ccnc2)c2ccc(Cl)cc2Cl)cc1 (stereo unspecified) | 50µM*!
59 | CN(C)CCc1c[nH]c2cccc(O)c12 | 27%
60 | O=C(Oc1ccccc1)N1CCC2(CCCN(Cc3nccs3)C2)CC1 | -64%[inhibitor]

Three entries picked at random from the list so far, as already listed:
No. | mol | EPAC1 agonist
31 | O[C@@H]1CCCN2C[C@@H](O)[C@@H](O)C12 (stereo partly specified) | -14%
60 | O=C(Oc1ccccc1)N1CCC2(CCCN(Cc3nccs3)C2)CC1 | -64%[inhibitor]
55 | NCCc1ccccc1 | -12%

Remaining list, next part.
No. | mol | EPAC1 agonist
61 | CCN1C[C@]2(COC)[C@H](O)C[C@H](OC)[C@@]34[C@@H]5C[C@@]6(O)[C@H](OC(=O)c7ccccc7)[C@@H]5[C@@](OC(C)=O)([C@@H]([C@H](OC)[C@H]23)[C@@H]14)[C@@H](O)[C@@H]6OC | -28%
62 | O=C1CN=C(c2ccccc2)c2cc([N+](=O)[O-])ccc2N1 | -19%
63 | C[C@H](CN1CCOCC1)C(C(=O)N1CCCC1)(c1ccccc1)c1ccccc1 | -1%
64 | CCN[C@H](C)Cc1cccc(C(F)(F)F)c1 | 5%
65 | Clc1ccc(COC(Cn2ccnc2)c2ccc(Cl)cc2Cl)c(Cl)c1 (stereo unspecified) | ?
66 | CC(CCc1ccccc1)NC(C)C(O)c1ccc(O)cc1 (stereo unspecified) | -6%&25%&-9%
67 | CC1(C)C2C[C@@H](O)[C@]3(C)C(CC[C@@]4(C)[C@H](c5ccoc5)C[C@H]5O[C@]543)[C@@]2(C)[C@@H](O)C[C@H]1O (stereo partly specified) | -25%
68 | C[C@@]12CCC(Cl)C[C@H]1CCC1C2CC[C@]2(C)C(=O)CCC12 (stereo partly specified) | 21%
69 | NNC(N)=O | -8%
70 | O=[N+]([O-])O[C@H]1CO[C@H]2[C@@H]1OC[C@H]2O[N+](=O)[O-] | ?
71 | NC[C@H](CC(=O)O)c1ccc(Cl)cc1 | -9%
72 | C=CCN1CC[C@]23c4c5ccc(O)c4O[C@@H]2C(=O)CC[C@]3(O)[C@H]1C5 | 3%
73 | Nc1ccc(N=Nc2ccccc2)cc1 | -19%
74 | CCCCC[C@@H](O)C1C(=O)OC(C)[C@H](O)/C=C/C=C/C=C/C=C/C=C(\C)C(O)C(O)C(O)C[C@H](O)C[C@H](O)C[C@H](O)C[C@H](O)C[C@@H]1O (stereo partly specified) | -13%&-11%
75 | c1ccc2sc(SNC3CCCCC3)nc2c1 | -25%
76 | CC1(C)C(O)CC(O)[C@]2(C)C1CC(=O)[C@]1(C)C2CC[C@@]2(C)C(c3ccoc3)OC(=O)C3OC321 (stereo partly specified) | ?
77 | Clc1cc(I)cc(Cl)c1NC1=NCCN1 | 1%
78 | ClC1C(Cl)C(Cl)C(Cl)C(Cl)C1Cl (stereo unspecified) | 18%&-24%
79 | CN1C2CCC1CC(OC(c1ccc(F)cc1)c1ccc(F)cc1)C2 (stereo unspecified) | -5%
80 | CCC(CO)NC(=O)C1C=C2c3cccc4[nH]cc(c34)CC2N(C)C1 (stereo unspecified) | -9%
81 | CN(N=O)c1ccc(O)c(O)c1 | ?
82 | COc1cc2c(cc1OC)-c1c(OC)c(OC)c(C=O)c3c1[C@H](C2)N(C)CC3 | 5%
83 | NNCc1ccccc1 | 24%
84 | CCN(CC)C(C)C(=O)c1ccccc1 (stereo unspecified) | 4%
85 | Oc1ccc(Cl)cc1Cc1ccccc1 | -100%&-35%[inhibitor]
86 | ClC=C(Cl)Cl | -9%
87 | O[C@H]1[C@H](O)[C@@H](O)CN2CC[C@H](O)[C@H]12 | -6%
88 | N[C@H](C(=O)O)c1cc(=O)[nH]o1 | -2%
89 | NC(=O)COc1c(F)cc(SCCNS(=O)(=O)c2ccccc2)cc1F | -3%
90 | CC(C)Nc1nc(Cl)nc(NC(C)C)n1 | 29%

Next part:
No. | mol | EPAC1 agonist
91 | CCOC(=O)c1ncn2c1[C@H]1CCCN1C(=O)c1cc(OC)ccc1-2 | -9%
92 | CCCCCN(C)CCC(O)(P(=O)(O)O)P(=O)(O)O | 3%&10%
93 | CCCCCCCCC(=O)NCc1ccc(O)c(OC)c1 | -69%&-48%[inhibitor]
94 | C[C@H]1C[C@H](C)C(=O)[C@@H]([C@H](O)CC2CC(=O)NC(=O)C2)C1 | -11%
95 | Nc1ccc([As](=O)(O)O)cc1 | -10%
96 | CC1OC(=O)C(C(C)C)NC(=O)C(C(C)C)OC(=O)C(C(C)C)NC(=O)C(C)OC(=O)C(C(C)C)NC(=O)C(C(C)C)OC(=O)C(C(C)C)NC(=O)C(C)OC(=O)C(C(C)C)NC(=O)C(C(C)C)OC(=O)C(C(C)C)NC1=O (stereo unspecified) | -17%&-109%
97 | C=CCN1CCC23c4c5ccc(O)c4OC2/C(=N/N=C2\CCC4(O)C6Cc7ccc(O)c8c7C4(CCN6CC=C)C2O8)CCC3(O)C1C5 (stereo unspecified) | -3%
98 | CNCC(O)c1ccc(O)cc1 (stereo unspecified) | -3%&-7%
99 | CC(C)CN1CCCC2(CCN(C(=O)c3ccncc3)CC2)C1 | -56%[inhibitor]

Entries from the list above with a Cl atom (18):
No. | mol | EPAC1 agonist
1 | O=c1[nH]c2ccccc2n1CCCN1CCC(n2c(=O)[nH]c3cc(Cl)ccc32)CC1 | -1%&-21%&-10%&11%
4 | CCC(Oc1ccc(Cl)cc1)C(=O)OC1CC2CCC(C1)N2C (stereo unspecified) | -23%
7 | ClC1=C(Cl)C2(Cl)C3C(Cl)C=CC3C1(Cl)C2(Cl)Cl (stereo unspecified) | -100%[inhibitor]
11 | CC(C)(C)NCC(O)c1cc(Cl)c(N)c(C(F)(F)F)c1 (stereo unspecified) | -16%
39 | CC(C)(C)C(O)C(Oc1ccc(Cl)cc1)n1cncn1 (stereo unspecified) | -85%[inhibitor]
45 | COc1ccc2c(C(=O)c3ccc(Cl)cc3)c(C)n(CC(=O)O)c2c1 | -15%
46 | CCOP(=S)(OCC)Oc1nc(Cl)c(Cl)cc1Cl | 8%
51 | CN1C(=S)CN=C(c2ccccc2)c2cc(Cl)ccc21 | -9%
57 | Cc1ncc2n1-c1ccc(Cl)cc1C(c1ccccc1F)=NC2 | -1%
58 | Clc1ccc(CSC(Cn2ccnc2)c2ccc(Cl)cc2Cl)cc1 (stereo unspecified) | 50µM*!
65 | Clc1ccc(COC(Cn2ccnc2)c2ccc(Cl)cc2Cl)c(Cl)c1 (stereo unspecified) | ?
68 | C[C@@]12CCC(Cl)C[C@H]1CCC1C2CC[C@]2(C)C(=O)CCC12 (stereo partly specified) | 21%
71 | NC[C@H](CC(=O)O)c1ccc(Cl)cc1 | -9%
77 | Clc1cc(I)cc(Cl)c1NC1=NCCN1 | 1%
78 | ClC1C(Cl)C(Cl)C(Cl)C(Cl)C1Cl (stereo unspecified) | 18%&-24%
85 | Oc1ccc(Cl)cc1Cc1ccccc1 | -100%&-35%[inhibitor]
86 | ClC=C(Cl)Cl | -9%
90 | CC(C)Nc1nc(Cl)nc(NC(C)C)n1 | 29%

The list is partial. The share of hits here may be higher or lower than overall.
